Measles inh = inhibitors of measles virus growth in cells, primary screen, measles RdRp inhibitor project, cell-based, single point, HTS; infected Vero cells, GFP fluorescence, 64 h; stronger effect = lower value; 33,000 compounds, 0.1% hits; z-score (no concentration beside the values);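 active = z-score under -3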;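 note: score is relative to mean and SD of the compound wells of a plate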
The depositor's hits bear a star.

#	structure	Measles inh
1	Cc1cccc(NC(=O)c2cnn3c(C)cc(C)nc23)c1	0.64
2	COc1cccc(OCCn2c(C(F)(F)F)nc3ccccc32)c1	1.8
3	CCn1cc(C(=O)NCCOC)c2cc(OC)c(OC)cc2c1=O	-0.27
4	O=C(O)c1ccc(-c2ccc(Br)cc2)o1	1.3
5	CCn1c(Cc2c(C)[nH]c3ccccc23)nnc1SCC(=O)Nc1ccc(C(C)=O)cc1	-0.76
6	Cc1cccc(Nc2nc(-c3c(C)nc4cc(C)ccn34)cs2)c1	-0.66
7	Cc1cc(C)nc(/N=C(\N)N2CCCCCC2)n1	0.31
8	Cc1cc(=O)oc2sc3c4ccccc4ccc3c12	-0.39
9	O=[N+]([O-])c1ccc(-c2csc(SCC=Cc3ccccc3)n2)cc1	-0.13
10	N#Cc1cc2c(nc1SCC(=O)O)CCCC2	0.03
11	O=C1CCCc2c1cc(C(=O)Nc1ccccc1)c(=O)n2-c1ccccc1	-0.93
12	CCOC(=O)COc1cc2occ(-c3cscn3)c(=O)c2cc1C	-0.42
13	CC1CCCC(C)N1C(=O)c1cc(-c2ccc(Br)cc2)nc2ccccc12 (configuration not stated)	1.7
14	O=C(Nc1nc2ccccc2s1)c1cccnc1	0.29
15	COc1ccc(CNC(=O)CCCn2c(=S)[nH]c3ccc(Br)cc3c2=O)cc1	-0.51
16	COC(=O)C1=C(N)OC2=C(C(=O)CCC2)C1c1ccc(C)cc1 (configuration not stated)	-0.16
17	COc1ccc(C2=NN3C(C2)c2ccccc2OC3C(C)C)cc1 (configuration not stated)	0.86
18	CC(=O)Nc1c(O)nc(SCc2ccc(Br)cc2)[nH]c1=O	-0.72
19	O=C(Nc1ccc(Br)cc1)C(Cc1ccccc1)NS(=O)(=O)c1cccs1 (configuration not stated)	-0.12
20	COc1ccccc1NC(=O)CCn1c(=S)[nH]c2ccccc2c1=O	-0.7
21	C=CCN(CC=C)S(=O)(=O)c1ccc(C(=O)N=c2sc3cc([N+](=O)[O-])ccc3n2C)cc1	0.93
22	Cn1c(-c2cccnc2)n[nH]c1=S	0.84
23	OCCn1c(CSc2nc3ccccc3n2CCO)nc2ccccc21	-0.52
24	OC1CSc2sc(=S)sc2SC1	-0.22
25	Cc1ccc(Cn2c(=O)cc(C(=O)NCc3cccs3)c3ccccc32)cc1	0.89

Next part, overlapping the part above by 5 compounds.
#	structure	Measles inh
21	C=CCN(CC=C)S(=O)(=O)c1ccc(C(=O)N=c2sc3cc([N+](=O)[O-])ccc3n2C)cc1	0.93
22	Cn1c(-c2cccnc2)n[nH]c1=S	0.84
23	OCCn1c(CSc2nc3ccccc3n2CCO)nc2ccccc21	-0.52
24	OC1CSc2sc(=S)sc2SC1	-0.22
25	Cc1ccc(Cn2c(=O)cc(C(=O)NCc3cccs3)c3ccccc32)cc1	0.89
26	C=CCn1c(=S)[nH]c2cc(C(=O)NCC3CCCN3CC)ccc2c1=O (configuration not stated)	-1.9
27	O=C(CSc1nc2c(cnn2-c2ccc(F)cc2)c(=O)[nH]1)NCc1ccco1	0.05
28	COC(=O)c1c(C)oc2c1cc(NS(=O)(=O)c1ccc(Br)cc1)c1ccccc12	0.12
29	Cc1sc(-c2ccc(O)cc2)nc1-c1c[nH]c2ccccc12	-1.4
30	CC1=C(C(=O)OCC(C)C)C(c2cccc(Cl)c2)NC(=O)N1 (configuration not stated)	-0.55
31	O=C1C(c2ccccc2F)N(CCc2ccccc2)C(=O)CN1C1CCCCCC1 (configuration not stated)	-0.09
32	Cc1ccc(C2C3=C(CC(c4ccccc4Cl)CC3=O)Nc3ccccc3N2C(=O)CCC(=O)O)cc1 (configuration not stated)	-0.56
33	O=C1C(=O)N(CCN2CCOCC2)C(c2ccc(F)cc2)/C1=C(\O)c1ccc(Br)cc1 (configuration not stated)	0.03
34	Fc1ccccc1CSc1nc(NCC2CCCO2)c2ccccc2n1 (configuration not stated)	-1.9
35	COc1cccc2c1OC1(C)CC2NC(=O)N1c1cccc(C(=O)N2CCN(c3ccc([N+](=O)[O-])cc3)CC2)c1 (configuration not stated)	-1.3
36	CCOc1ccc(Nc2oc(-c3ccccc3)nc2C#N)cc1	-0.54
37	O=C1c2ccc([N+](=O)[O-])c3c([N+](=O)[O-])ccc(c23)C(=O)N1c1ccccc1Cl	3.9
38	CCN1C(=O)c2cccc3c(NS(=O)(=O)c4ccc([N+](=O)[O-])cc4)ccc1c23	-1.6
39	CCOC(=O)C1CCC(CN(Cc2ccccc2Cl)S(=O)(=O)c2ccccc2Cl)CC1 (configuration not stated)	-0.65
40	Cc1nc(/N=C(\N)NC(=O)Cc2ccccc2)nc2ccccc12	-0.84
41	Cc1ccc(CNC(=O)CCCn2c(=O)c3sccc3n(Cc3c(C)cc(C)cc3C)c2=O)cc1	-0.41
42	CC(C)(C)c1ccc(C2/C(=C(\O)c3ccccc3)C(=O)C(=O)N2Cc2cccnc2)cc1 (configuration not stated)	-1.1
43	CC1=C(C(=O)OCc2ccc3c(c2)OCO3)C(c2ccc(F)cc2)NC(=O)N1 (configuration not stated)	0.07
44	COc1ccc(S(=O)(=O)Nc2nc(C)cc(C)n2)cc1	0.34
45	O=C(NC1CCCc2ccccc21)C1CCCN(S(=O)(=O)N2CCCCCC2)C1 (configuration not stated)	-0.53
46	CCCCCNC(=O)c1ccc2c(=O)n(CC3CCCO3)c(=O)[nH]c2c1 (configuration not stated)	-0.37
47	Cc1c(C(=O)O)oc2ccc(S(=O)(=O)NC3CCCC3)cc12	-0.43
48	O=C(Nc1c2c(nn1-c1ccc([N+](=O)[O-])cc1)CSC2)C1(c2ccc(Cl)cc2)CCCC1	0.14
49	CC1CCN(S(=O)(=O)c2cc(C(=O)Nc3cccc(Cl)c3)ccc2F)CC1	-0.48
50	Cc1cccc(NC(=O)Cn2nnc(-c3ccccc3F)n2)c1	-1.1

(list continues)
#	structure	Measles inh
51	CC1=C(C(=O)Nc2ccc(Cl)cc2)C(c2cc(Br)ccc2OC(F)F)n2ncnc2N1 (configuration not stated)	-1.7
52	COCCOC(=O)C1=C(C)NC2=C(C(=O)CC(c3ccc(OC)c(OC)c3)C2)C1c1ccccc1C (configuration not stated)	1.9
53	CCOC(=O)c1cccc2c1NC(c1ccc(C(=O)OC)cc1)C1CC=CC21 (configuration not stated)	-0.44
54	CCOc1ccc(N(C(C)C(=O)Nc2ccc(Cl)cc2C)S(C)(=O)=O)cc1 (configuration not stated)	1.8
55	COc1ccc(S(=O)(=O)N2CCCN(CC(=O)c3ccc(O)c(O)c3)CC2)cc1	-0.06
56	Cc1ccccc1C(=O)Nc1sc2c(c1C(=O)OC(C)C)CCCC2	0.43
57	CCCCOC(=O)C1=C(C)NC2=C(C(=O)CCC2)C1c1ccc(O)c(OCC)c1 (configuration not stated)	-0.93
58	Cc1ccc2c(c1)c(=O)c1ccccc1n2CC(=O)Nc1ccc(C(F)(F)F)cn1	-0.93
59	CN(C)c1cccc(NC(=O)c2cccc3ccccc23)c1	-0.16
60	CN1C(=O)c2ccccc2C(C(=O)Nc2ccc3c(c2)OCO3)C1c1cccs1 (configuration not stated)	0.54
61	CC(C)c1ccc(NC(=O)c2cc(S(=O)(=O)N3CCCCCC3)ccc2F)cc1	-0.76
62	COC(=O)c1ccc(C2NC(=O)c3c(sc4c3CCN(C)C4)N2)cc1 (configuration not stated)	1.4
63	Cc1nc2cc(C(=O)NC3CCCCCC3)ccc2n1-c1ccc(Br)cc1	-0.44
64	Cc1[nH]c2c(ccc3ccccc32)c(=O)c1CN1CCCCCC1	4.5
65	CCCC(=O)Nc1cc(C(=O)OC)ccc1Sc1ccc(Cl)cc1	-0.69
66	CC(=O)Oc1ccc(C(=O)Nc2cccc([N+](=O)[O-])c2C)cc1	-0.08
67	Cc1cc(Br)ccc1NS(=O)(=O)c1ccc2[nH]c(=O)c(=O)[nH]c2c1	0.83
68	Cc1sc(N)nc1-c1cc2ccccc2oc1=O	-0.22
69	O=C(Nc1cccnc1Cl)c1cc(-c2ccc3c(c2)OCO3)on1	-2
70	C=CCN(c1ccccc1)C(C(=O)NC1CCCC1)c1ccc(C)cc1 (configuration not stated)	-1.3
71	O=C(NCc1ccc(F)cc1)c1ccc(CNC(=O)c2ccc3c(c2)OCO3)cc1	-0.24
72	CC(C)CCNC(=O)C1CC(=O)N(CCc2ccccc2)C1 (configuration not stated)	0.58
73	N#CCSc1nc2ccccc2c2nc3ccccc3n12	0.39
74	CCN(CC)C(=O)Cn1cnc2sc(C)c(S(=O)(=O)N3CCC(C)CC3)c2c1=O	-0.88
75	COc1ccc(C(=O)n2nc(C)c(Sc3ccc(C)cc3)c2C)cc1	0.01

Further compounds follow.
#	structure	Measles inh
76	CCN(CCCNC(=O)C1CC(=O)N(C2CCCCCCC2)C1)c1cccc(C)c1 (configuration not stated)	-1.1
77	O=C(NC1CCCCC1)C(NS(=O)(=O)c1cccs1)c1ccccc1 (configuration not stated)	1.6
78	COc1ccc(CCNC(=O)c2ccc3c(c2)N(Cc2ccccc2F)C(=O)CS3)cc1OC	-0.03
79	COc1cc(C(=O)Nc2nc(-c3ccc4c(c3)OCO4)cs2)cc(OC)c1OC	1.2
80	COC(=O)C(O)(NC(=O)c1ccc(C)cc1)C(F)(F)F (configuration not stated)	0.17
81	O=C(Cc1ccc([N+](=O)[O-])cc1)NCC1CCCO1 (configuration not stated)	-0.48
82	CC1CC(C)CN(C(=O)C2CCCN(S(=O)(=O)c3cccc4nonc34)C2)C1 (configuration not stated)	2.5
83	Nc1c(C(=O)Nc2ccccc2F)sc2nc3c(cc12)CCC3	1
84	CC1C2NC(=O)N(c3ccc(F)cc3)C1(C)Oc1ccc(Br)cc12 (configuration not stated)	-1.3
85	Cc1cc(C)c2oc(-c3ccc(C)c(NC(=O)CC(C)C)c3)nc2c1	-0.63
86	Cc1ccc(C)c(NC(=O)c2cc3c(=O)n4cccc(C)c4nc3s2)c1	-0.44
87	CC1=C(C(=O)OC2CCCC2)C(c2ccccc2Br)C2=C(CC(C)(C)CC2=O)N1 (configuration not stated)	-1.1
88	CCOC(=O)c1c(CSc2ccc(C)cc2)n(C)c2cc(Br)c(O)c(CN(C)C)c12	-2.4
89	Cc1ccc(S(=O)(=O)CCC(=O)N2CCC(C)CC2)cc1	-0.82
90	Cc1ccc(Sc2cc(C(=O)NC3CCCC3)c3ccccc3n2)cc1	-0.43
91	CCOc1ccc2c(c1)C(C)=CC(C)(C)N2S(=O)(=O)c1ccc(Br)cc1	-0.55
92	CCOc1cccc(NC(=O)c2sc3nc(-c4ccncc4)ccc3c2N)c1	-0.13
93	Cc1cc(C)n(C(=O)CCNC(=O)c2ccccc2Br)n1	-0.02
94	Cc1cc(C(F)(F)F)nc(NCc2cccs2)n1	-2.1
95	COc1ccc(S(=O)(=O)N2CCC(C)CC2)cc1	0.12
96	CC1CCCN(c2ccc(C(=O)NC3CC3)cc2[N+](=O)[O-])C1 (configuration not stated)	-0.33
97	Cc1ccc2c(c1)C(C)CC(C)(C)N2C(=O)CSc1ncccn1 (configuration not stated)	-0.5
98	Cc1cc(C)nc(NC(N)=NCc2ccco2)n1	-0.27
99	COc1cc(C)nc(N(CCC(C)C)S(=O)(=O)c2ccc(C)cc2)n1	-0.28
100	Nc1nc2ccc(Oc3ccc4nc(N)sc4c3)cc2s1	-1.3

Looked up by compound from the entries so far, 5 records:
#	structure	Measles inh
84	CC1C2NC(=O)N(c3ccc(F)cc3)C1(C)Oc1ccc(Br)cc12 (configuration not stated)	-1.3
81	O=C(Cc1ccc([N+](=O)[O-])cc1)NCC1CCCO1 (configuration not stated)	-0.48
87	CC1=C(C(=O)OC2CCCC2)C(c2ccccc2Br)C2=C(CC(C)(C)CC2=O)N1 (configuration not stated)	-1.1
79	COc1cc(C(=O)Nc2nc(-c3ccc4c(c3)OCO4)cs2)cc(OC)c1OC	1.2
95	COc1ccc(S(=O)(=O)N2CCC(C)CC2)cc1	0.12

Continuation:
#	structure	Measles inh
101	Cc1ccc(C)c(N2CCN(C(=O)c3c[nH]c4ccc(S(=O)(=O)N5CCC(C)CC5)cc4c3=O)CC2)c1	-0.15
102	Cc1cc2nn(-c3ccccc3)nc2cc1NC(=O)c1cccc(Cl)c1	2.7
103	O=C1c2[nH]nc(-c3ccc(F)cc3)c2C(c2ccccc2[N+](=O)[O-])N1c1ccccc1 (configuration not stated)	-1
104	Cc1cc(NC(=O)c2ccc(NS(=O)(=O)c3c(C)noc3C)cc2)ccc1Br	0.13
105	Cc1ccc(NC(=O)C2C3NC(=S)NC2(C)Oc2ccc(C)cc23)c(C)c1 (configuration not stated)	-2
106	O=C(Nc1ccc2c3c(cccc13)CC2)c1ccc(S(=O)(=O)N2CCc3ccccc3C2)cc1	1.2
107	Cc1sc(N=Cc2ccc(O)cc2)c(C#N)c1C	-0.38
108	CCC(=O)N1CCc2cc(Br)cc(S(=O)(=O)N3CCCC(C(=O)N4CCN(c5ccc(F)cc5)CC4)C3)c21 (configuration not stated)	-0.39
109	CCOCCOC(=O)CSc1ncnc2sc3c(c12)CCC(C)C3 (configuration not stated)	-0.19
110	COc1ccc([N+](=O)[O-])cc1NC(=O)c1sc2ncn(CC(=O)N3CCC(C)CC3)c(=O)c2c1C	-0.42
111	COC(=O)C1=C(C(=O)OC)SC(=C2C(=S)C(C)(C)N(C(=O)c3cccc([N+](=O)[O-])c3)c3ccc(OC)cc32)S1	-2
112	COCCCNc1c2c(nc3ccccc13)CCC2	0.76
113	O=C(O)CCC(=O)N1CCN(C(=O)c2ccco2)CC1	0.12
114	Cc1ccc(Cl)cc1Nc1nnc(C)c(=O)[nH]1	-0.72
115	Cc1ccc(Nc2nc3c([nH]2)c(=O)[nH]c(=O)n3C)cc1	-0.81
116	O=C1C(=O)N(c2ccccc2)c2ccccc21	-0.12
117	CCOC(=O)CSc1ccc(C(=O)OC)cc1[N+](=O)[O-]	-0.16
118	Clc1ccc2c(c1)C1C=CCC1C(c1cccc(Br)c1)N2 (configuration not stated)	-1.8
119	O=C(Nc1ccc(Oc2ccccc2)cc1)c1ccc(F)c(S(=O)(=O)N2CCN(c3ccccc3F)CC2)c1	1.4

Screening results: PubChem, Emory University Molecular Libraries Screening Center

Some of the compounds tested. The share of hits here may be higher or lower than overall.
